# gsp antagonist: qHTS for Antagonists of gsp, the Etiologic Mutation Responsible for Fibrous Dysplasia/McCune-Albright Syndrome: qHTS; gsp-mutant cells, cAMP HTRF, 30 min; control for the full effect not named in the record; Potency, µM (doses to about 76.9 µM), without a hit: at the highest dose activity change, negative = inhibition, most hits filed as inhibitors; actives 0.4% (n = 340,000); active = falling curve of any shape with a large fitted effect; inconclusive = falling curve, mostly with a smaller effect; inactive = flat or rising curve; cell line not stated here;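 further: intracellular cAMP measured with PDE inhibitor Ro 20-1724 present during compound exposure; potency means the concentration at half of the fitted maximal effect; on the % scale 0 is the no-effect control and ±100 the full control effect; nearly all actives have a fitted effect of over 65% in size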
#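 HTRF cAMP measurement after 30 min RT detection following 30 min, 37C compound treatment alongside […] (added as 300 uM solution) in G418-selected cells seeded at 2000/well and grown 16–24 h.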
# TRPV1 potentiator: HTS Assay for Compounds that Act as Potentiators of the Vanilloid Receptor 1; TRPV1-expressing cells, Fluo-8 calcium influx, capsaicin EC20 potentiation; host cell line not named in the record; control for the full effect not named in the record; potentiation, % at 8.33 µM; actives 0.02% (n = 320,000); AID 540277, 2011; active means potentiation above 80%; inconclusive means 30% to 80%; inactive means below 30%; further: 0% is about no effect
#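 TRPV1-expressing cells were cultured overnight at 35.5C and loaded with Fluo-8 calcium dye for 40 to 90 min at room temperature. After a 10 s baseline, compound was added and calcium influx was read kinetically for 3 min (ex 480/em 520 nm).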
# TRPML1 inh: qHTS for Inhibitors of the Human Mucolipin Transient Receptor Potential 1 (TRPML1); TRPML1-inducible cells, Ca2+ dye fluorescence, FDSS; hits give low values; inhibition of EC80 agonist-evoked calcium signal; activity change, negative = inhibition, % (test concentration not listed); AID 624415, 2012; actives 0.02% (n = 390,000); in the data active means activity change below about -50%; inconclusive means about -30% to -50%; inactive means above about -30%;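 further: stimulus is agonist 54-4 at its EC80 concentration; on the % scale 0 is the no-effect control and ±100 the full control effect; compound concentration not given in the record; the text of the record puts the active cut at -80%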
# Target sequence (Q9GZU1 whole entry, looked up): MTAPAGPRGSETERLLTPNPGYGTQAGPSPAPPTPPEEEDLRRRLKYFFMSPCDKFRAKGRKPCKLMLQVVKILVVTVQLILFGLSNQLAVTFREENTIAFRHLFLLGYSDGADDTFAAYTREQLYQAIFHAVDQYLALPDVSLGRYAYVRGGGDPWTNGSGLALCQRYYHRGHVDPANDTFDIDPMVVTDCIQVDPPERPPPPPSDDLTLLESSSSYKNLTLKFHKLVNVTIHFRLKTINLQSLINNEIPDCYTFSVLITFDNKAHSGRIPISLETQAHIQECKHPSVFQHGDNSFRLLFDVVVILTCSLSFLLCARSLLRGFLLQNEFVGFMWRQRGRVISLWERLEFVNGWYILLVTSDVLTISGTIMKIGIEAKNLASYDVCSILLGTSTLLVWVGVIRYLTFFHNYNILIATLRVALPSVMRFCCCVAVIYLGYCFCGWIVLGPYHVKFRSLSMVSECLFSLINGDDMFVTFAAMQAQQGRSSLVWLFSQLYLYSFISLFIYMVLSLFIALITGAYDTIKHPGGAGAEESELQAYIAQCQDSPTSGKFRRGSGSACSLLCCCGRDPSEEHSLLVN
#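 Calcium fluorescence in TRPML1-DL cells induced overnight with Tet: a 110 s read after compound pin addition, then a 110 s antagonist read after challenge with 54-4 at 4 uM final (EC80).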
# Menin-MLL FL inh: qHTS Assay for Inhibitors Targeting the Menin-MLL Interaction in MLL Related Leukemias: Competition With Fluorescein Labeled MLL-derived Peptide; Fluorescence polarization, fluorescein-MLL peptide displacement from menin; FP activity change, % at 61.4 µM; 290,000 tested, under 10 active; AID 1766, 2009; inconclusive = falling polarisation curve, or a change in total fluorescence; inactive = total fluorescence flat and polarisation flat or rising; no compound was filed as active; the % refers to the polarisation; negative = inhibition;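 further: % of control where 0% means no effect; inhibitors lower the polarisation; unlabelled MLL peptide was the positive control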
# Sfp inh: qHTS Assay for Inhibitors of Bacillus subtilis Sfp phosphopantetheinyl transferase (PPTase). Biochemical Sfp PPTase activity, qHTS. Potency, µM, inactives show max response, negative = inhibition, actives largely listed as inhibitors. actives 3.5% (n = 310,000); active means well fitted inhibition curve with a large enough effect; inconclusive means small, poorly fitted or top-dose-only effect, or another doubt; inactive means no such curve, though single readings can be large or run the other way;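 further: the enzyme is Sfp with the accession as filed and its product quenches rhodamine fluorescence; potency means the concentration at half of the fitted maximal effect; 0% = enzyme reaction without inhibitor and -100% = no enzyme wells; top concentration of the series not given in the record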
#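 After 15 min at room temperature with compound, 15 nM Sfp received 5 uM rhodamine-CoA plus 12.5 uM BHQ-2-ybbR (50 mM Hepes pH 7.6, 10 mM MgCl2). Rate came from the fluorescence difference over 30 min, ex 525/em 598 nm.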
# ClpP mod: qHTS Assay for Activators of ClpP; purified B. subtilis ClpP, FRET peptide cleavage, 20 min; Potency, µM (top dose mostly 57.5 µM), inactives show at the highest dose activity change, negative = active; actives 1.9% (n = 340,000); ATP-dependent Clp protease proteolytic subunit (Bacillus subtilis (strain 168)), P80244; active = well fitted falling curve with a large enough effect; inconclusive = small, poorly fitted or top-dose-only effect; inactive = no such curve, though single readings can be large or run the other way; further: potency means the concentration at half of the fitted maximal effect; the source files actives as falling curves though it sought activators and does not explain the sign; nearly all actives have a fitted effect of over 65% in size; many hits overshoot -100%
# Target sequence (P80244 whole entry, looked up): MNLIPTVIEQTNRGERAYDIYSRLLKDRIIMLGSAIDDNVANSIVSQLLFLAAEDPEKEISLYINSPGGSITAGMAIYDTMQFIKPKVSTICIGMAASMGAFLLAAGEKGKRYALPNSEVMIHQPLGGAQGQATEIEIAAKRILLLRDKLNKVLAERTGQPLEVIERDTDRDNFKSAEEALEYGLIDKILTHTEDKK
#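 FRET quenching reversal measured ClpP activation: 10 microg/mL B. subtilis ClpP at pH 8 with the FRET-FV decapeptide, read at 430 nm after 320 nm excitation. The 20-min minus 0-min signal was scaled between DMSO/no-enzyme wells and ADEP (5.8 microM final).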
# gsp agonist: qHTS for Agonist of gsp, the Etiologic Mutation Responsible for Fibrous Dysplasia/McCune-Albright Syndrome: qHTS; gsp mutant cells, cAMP HTRF, 30 min; control for the full effect not named in the record; Potency, µM (series often up to 76.9 µM), inactives show at the highest dose activation (cAMP increase), most hits filed as activators; actives 0.13% (n = 340,000); active = well fitted activation curve with a large enough effect; inconclusive = small, poorly fitted or top-dose-only effect, or another doubt; inactive = no such curve, though single readings can be large or run the other way; cell line not stated here;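 further: phosphodiesterase inhibitor Ro 20-1724 added with compounds to block cAMP breakdown; potency means the concentration at half of the fitted maximal effect; nearly all actives have a fitted effect of over 60% in size; about a fifth of the inactives were tested at one dose only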
#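 Cells in DMEM/10% FBS with G418 were pretreated with compounds in DMSO plus […] (300 uM stock) for 30 min at 37C. cAMP was measured by HTRF (cAMP-d2 plus anti-cAMP antibody-K) after 30 min at room temperature.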
# Active calls of the source: *; ? = inconclusive; . = not tested or not shown; & = joins results of further samples; [ ] = another dose, or the depositor's remark.
# Under each structure – gsp antagonist, TRPV1 potentiator, TRPML1 inh, Menin-MLL FL inh, Sfp inh, ClpP mod, gsp agonist
CCOC(=O)N1CCN([N+]([O-])=NOc2cc(O/N=[N+](\[O-])N(C)C)c([N+](=O)[O-])cc2[N+](=O)[O-])CC1
  ., ., -4, 0.4, ?, ., .
CC(NS(=O)(=O)c1ccccc1)C(=O)NCCc1ccccn1 (stereo not given)
  ., 4, -1, 2.5, 10%, ., 10%[15.4 µM]
O=C(/C=C/c1ccc(F)cc1)OCC(=O)c1ccc[nH]1
  -9%, -1, 30, ., ., -1.7%, 3%
Cc1cc(C)c(NC(=O)C2CC3CCC2C3)c(C)c1 (stereo not given)
  -1%, 13, ., 4.1, 27%, -0.4%, 1%
CC(C)(C)C(=O)Nc1ccc(C(=O)CSc2nnc(C3CC3)n2C2CC2)cc1
  0%, -3, 6, ., ., 1.6%, 11%
O=C(NNS(=O)(=O)c1ccccc1)c1ccc([N+](=O)[O-])cc1
  -26%, -5, -18, -8.6, 4%, 0.9%, -1%
CCCCn1c(N)c(N(CCOC)C(=O)CSc2nc3ccc(C)cc3[nH]2)c(=O)[nH]c1=O
  10%, 7, 4, -0.7, 0%, 0.4%, -19%
COc1cccc(OCCNCc2ccccc2)c1
  10%, 1, 11, -0.5, -18%, 0.3%, -2%[15.4 µM]
O=C(ON=C1CCN(S(=O)(=O)c2ccccc2)CC1)c1ccccc1
  10%, -18, 1, 5.1, 0%, -1.2%, 6%
CC(CC(=O)O)CC1=NS(=O)(=O)c2ccccc2N1 (stereo not given)
  1%, -7, 10, -3.2, 6%, 2.0%, 22%
Cc1nn(Cc2ccc(C(=O)N3CCN(C(=O)c4ccco4)CC3)o2)c(C)c1[N+](=O)[O-]
  -10%, 3, 9, ., 6%, -0.8%, ?
COc1ccc(C(=O)NCCc2nnc(SCC(=O)Nc3ccccc3)n2C)cc1
  5%, 5, -8, -1.2, 23%, -4.0%, -3%
O=C(c1cccc(NC2=NC3CS(=O)(=O)CC3S2)c1)N1CCN(c2ncccn2)CC1 (stereo not given)
  1%, 0, 6, -0.1, 8%, -18%, ?
CCCCN(CC)CCCNC(=O)c1ccc(CS(=O)(=O)c2ccccc2C)o1
  12%, 6, 13, 2.7, 13%, 1.0%, ?
O=C(NCc1ccco1)C1CC(=O)N(c2cccc(Cl)c2)C1 (stereo not given)
  -4%, -6, -2, 1.8, 13%, ., 0%[15.4 µM]
C=CCOc1ccccc1CN1CCC(Oc2ccc(C(=O)N3CCCCC3)cc2)CC1
  -1%, -9, 18, 2.2, -2%, -0.7%, -1%
CCOC(=O)C1=C(C)N(C)C(=S)NC1c1ccccc1Cl (stereo not given)
  6%, 6, 4, 4.7, -4%, -1.5%, -23%
COc1ccc(/C(N)=N/OC(=O)c2ccco2)cc1
  10%, -2, -2, 1.6, 0%, ., -2%[15.4 µM]
CC(C)NCc1nnc(-c2ccccc2Cl)o1
  8%, 7, -6, 0.1, -3%, 3.4%, -61%[inhibitor]
CCCc1cc(=O)oc2cc(C)c3c(C)coc3c12
  1%, -5, -10, 4.8, 5%, ?, 2%
CCN1CCN(C(=S)Nc2cccc(Cl)c2)CC1
  -2%, 10, 35, -2.7, -1%, -3.7%, 6%
CCOc1ccc(/C=N/NC(=O)C(=O)N2CCCCCC2)c2ccccc12
  -12%, 0, 1, -3.3, -4%, -26%, -2%
Cc1ccc(CNC(=O)CCNS(=O)(=O)c2cccc3nsnc23)cc1
  9%, 6, 0&-7, -5.6, 11%, -1.2%, 12%[15.4 µM]
CCN(CC)S(=O)(=O)c1cccc(-c2nnc(SCCOc3ccccc3C)o2)c1
  -16%, 1, 51, -1.7, 17%, -16%, 6%
CCOc1ccc(NC(=O)CSc2nnc(COc3c(C)cccc3C)o2)cc1
  -1%, 2, -2, 5.0, 8%, 3.8%, 0%
COc1cc(O)c(C(C)=O)cc1OC
  16%, 0, -13, -0.9, -1%, -3.5%, 14%
COC(=O)c1c(-n2cnnn2)sc(C)c1C
  7%, -11, 0, 7.0, 14%, 22µM*, 18%
CCS(=O)(=O)N1Cc2ccccc2CC1C(=O)Nc1nnc(SCc2ccc(F)cc2)s1 (stereo not given)
  -28%, ?, 14, ?, ?, -4.9%, 0%
C/C(=N/NC(=O)c1ccoc1C)c1cccc(NC(=O)C2CC2)c1
  7%, -11, 22, ., 12%, -11%, -12%[15.4 µM]
Cc1ccc(C)n1-c1sc2c(c1C#N)CCC(C)C2 (stereo not given)
  -28%, ?, -6, 2.2, -5%, -1.2%, -18%
CCOC(=O)c1c(NC(=O)CCS(=O)(=O)c2ccccc2)sc2c1CC(C)(C)NC2(C)C
  -4%, 5, -14, ., 5%, -5.2%, -3%[15.4 µM]
O=C(CC1(O)C(=O)N(CCc2ccccc2)c2ccccc21)c1ccco1 (stereo not given)
  -6%, 11, 2, 0.8, 9%, -0.1%, -20%
Cc1cccc2cc(CN(CC3CCCO3)C(=O)c3cnccn3)c(=O)[nH]c12 (stereo not given)
  2%, -6, -7, 2.1, 12%, -13%, -20%
O=C(O)Cn1c(-c2ccccc2)cc2ccccc21
  4%, 2, 3, -0.4, 13%, 3.8%, 21%
O=C1/C(=C\c2ccco2)SC(=S)N1C1CCS(=O)(=O)C1 (stereo not given)
  1%, -2, 21, ?, 32µM*, ., -5%[15.4 µM]
CCSc1nsc(SCC)c1C(N)=O
  -3%, -3, 5, 2.1, -2%, 0.1%, ?
COC(=O)[C@@H](Cc1c[nH]c2ccccc12)NC(=O)CCC(=O)c1ccc(Br)cc1
  -19%, 17, ., 0.9, 0%, -1.6%, 37%
O=C(NNC(=O)c1ccccc1-c1ccccc1C(=O)O)c1cccc([N+](=O)[O-])c1
  -4%, 5, 6, -1.0, 10%, 1.1%, -2%[15.4 µM]
COc1ccccc1C(=O)NNC(=O)c1csc(N2CCOCC2)n1
  7%, -1, -5, ., ., ., 10%[15.4 µM]
CC(C)c1ccccc1
  -1%, -3, -5, ., ., 0.8%, .
CC1CCCC(C)N1C(=O)COC(=O)c1cccs1 (stereo not given)
  7%, ., 17, ., ., -0.3%, -3%
O=C(OCc1cccc(F)c1)c1ccc2c(=O)n3c(nc2c1)CCC3
  -14%, 25, 8, 4.9, ?, ., 11%[15.4 µM]
O=C(CCCNS(=O)(=O)c1cccs1)N1CCc2ccccc2C1
  2%, -16, 32, 2.5, -2%, -1.1%, -10%
CC(C)C(=O)Nc1ncc2c(n1)CC(c1cccs1)CC2=O (stereo not given)
  9%, -2, -12, 3.8, 8%, -11%, -17%
Nc1nc(C(=O)N2CCOCC2)nn1S(=O)(=O)c1ccc(Cl)cc1
  7%, -22, 0, 5.1, 8%, -2.4%, 16%
O=C(CSc1n[nH]c(-c2ccncc2)n1)Nc1ccccc1Cl
  -2%, 6, 22, ., ., ., -17%[15.4 µM]
O=Cc1cc([N+](=O)[O-])ccc1N1CCOCC1
  -1%, 28, 34, 6.3, 9%, -3.6%, ?
C/C=C/C(=O)Nc1cccc(C2=NOC3(C2)C[C@@H](C(N)=O)N(C(=O)C(c2ccccc2)c2ccccc2)C3)c1 (stereo not given in full)
  -14%, -36, 1, 6.4, -4%, 0.6%, -32%[inhibitor]
O=c1c2ccccc2c(-c2ccccc2)nn1Cc1c(Cl)cccc1Cl
  ?, 26, 5, 0.6, -8%, ?, -11%
OC(COCc1cccs1)CN1CCN(c2cccc(C(F)(F)F)c2)CC1 (stereo not given)
  -5%, 6, -1, 1.4, 12%, 8.9%, -8%

# Further results
# Under each structure – gsp antagonist, TRPV1 potentiator, TRPML1 inh, Menin-MLL FL inh, Sfp inh, ClpP mod, gsp agonist
CCOC(=O)c1ccc(-n2c(O)c(/C=N/NC(=O)C3COc4ccccc4O3)c3ccccc3c2=O)cc1 (stereo not given)
  -25%, 18, -1, 37[activator], 29%, 0.5%, -48%[inhibitor]
NC(=O)N1N=C2/C(=C/c3ccccc3)CCCC2C1c1ccccc1 (stereo not given)
  ?, 12, 32, 0.1, -4%, ., -24%
Cc1cccc2nc(Cn3c(=O)n(CCC(=O)NCc4ccco4)c(=O)c4ccccc43)cc(=O)n12
  -7%, ., 0, ., ., -2.8%, 23%
COc1ccc2oc(=N)c(C(=O)Nc3ccc(C)cc3)cc2c1
  -5%, 3, ., -4.8, 11%, 1.5%, -15%
CCCCN1C(=O)/C(=C2\SC(N3CCOCC3)=NC2=O)c2ccccc21
  9%, -6, 3, -3.9, 24%, -0.1%, 9%
COc1ccc(C2(CNC(=O)c3ccc(Br)o3)CCOCC2)cc1
  -6%, -10, 13, 1.3, 22%, ?, -34%[inhibitor]
Cc1ccc(S(=O)(=O)Nc2cccc3c2O[C@@H](CN(C)C(=O)Nc2ccc4c(c2)OCO4)[C@H](C)CN([C@@H](C)CO)C3=O)cc1
  -11%, ., -9, ., ., -2.8%, ?
CCSc1nnc(-c2cccs2)o1
  0%, -27, 13, -0.8, 12%, 28µM*, -3%
Cc1ccc(S(=O)(=O)c2nnn3c2nc(N2CCN(c4ccccn4)CC2)c2ccccc23)cc1C
  2%, -1, -2, -6.3, 10%, ., -11%
COc1ccc(S(=O)(=O)N/N=C(/C)c2ccco2)cc1
  4%, 10, 18, ., -6%, -2.7%, 44%
COc1ccc(CC(=O)Nc2ccc(S(=O)(=O)Nc3cc(OC)nc(OC)n3)cc2)cc1
  -4%, -1, -3, -2.6, -11%, ., 25%

# Screening data deposited in PubChem by National Center for Advancing Translational Sciences (NCATS).
